# Compound activity deposited in PubChem by ICCB-Longwood Screening Facility, Harvard Medical School.
# Sa growth inh: inhibitors of Staphylococcus aureus growth at 42 °C. S. aureus RN4220 growth, OD600, 20 h; stronger effect = lower value. 0.53% of 170,000 active. relative growth, % (no concentration beside the values);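 active = growth at 42 °C up to 50% and 20 or more points under that at 30 °C, or under 10% at both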;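 also: 300 nL library stock went into each well; scaled to the means of positive and negative controls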
# HCMV UL50-53 inh: disrupts HCMV UL50-UL53 complex binding; HTRF UL50-UL53 interaction, normalized percent inhibition; inhibition, % (test concentration not listed); 0.15% of 190,000 active; AID 1918969;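 active = both replicates at 50% or more, plus weaker picks with an unusually low signal ratio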;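 also: stock transfer was 100 nL into about 20 µL; 0% = negative control wells and 100% = wells with untagged competitor protein; inactives centre near -12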
# GIV Gai3 FP: inhibitors of GIV GBA-motif binding to rat Galpha-i3 | 0.42% of 210,000 active | Galpha-i3/FITC-GIV peptide fluorescence polarization, 90 min; stronger effect = lower value; scaled: aluminum fluoride 0%, vehicle 100% | P08753 | percent of control (FP), % (no concentration beside the values);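 active = replicate mean at 85% of control or lower, very high polarization wells dropped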;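 also: wells of about 15 µL received 100 nL stock; the first replicate is given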
# Target sequence (P08753 whole entry, looked up): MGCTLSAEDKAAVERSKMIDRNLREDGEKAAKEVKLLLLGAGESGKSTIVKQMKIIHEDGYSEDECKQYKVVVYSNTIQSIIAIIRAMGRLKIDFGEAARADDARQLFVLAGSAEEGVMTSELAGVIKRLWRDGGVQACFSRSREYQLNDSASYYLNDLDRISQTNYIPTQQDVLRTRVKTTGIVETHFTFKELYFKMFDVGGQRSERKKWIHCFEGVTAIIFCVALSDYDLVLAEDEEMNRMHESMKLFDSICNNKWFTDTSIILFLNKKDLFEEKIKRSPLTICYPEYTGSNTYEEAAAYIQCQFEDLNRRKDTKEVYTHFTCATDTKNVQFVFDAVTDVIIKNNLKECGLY
# Sa growth inh second temp: recorded beside Sa growth inh, whose call it bears; relative growth, %; measured here: growth at 30 °C;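 optical density after 20 h as mean of two plates; 100% = untreated growth and lower means inhibition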
# The depositor's hits bear a star; . = no result given; & = joins results of further samples.
# Second line of a record: Sa growth inh second temp	GIV Gai3 FP	Sa growth inh	HCMV UL50-53 inh
CNC(=O)CCn1ccc2cc(S(=O)(=O)N3CCC(C)CC3)ccc21
→ .	98	.	15
CC1(C)OC(=O)CC1C(=O)O (stereo unspecified)
→ 96	107	85	-35
COc1ccccc1-c1noc(-c2cccc(Cl)c2)n1
→ 82	108	119	-2
S=c1[nH]nc(Cc2cccc3ccccc23)o1
→ 76	.	84	-32
COc1ccc(-c2cc(OC(=O)c3ccccc3)cc3sc(=O)oc23)cc1
→ 86	105	92	.
COc1cccc(NC(=O)c2cnc(SCC(=O)N3CCOCC3)n(C)c2=O)c1
→ 101	102	126	.
CCn1ncc(C2=NOC(C(=O)NCC(C)C)C2)c1C (stereo unspecified)
→ 93	106	99	.
Cc1ccc(NC(=O)Cn2nnc(S(=O)(=O)c3ccc(C(C)(C)C)cc3)c2N)c(C)c1
→ 74	102	84	.
C=C(C)CSc1nc2c(c(=O)[nH]1)C(C)(C1CCCCC1)Cc1ccccc1-2 (stereo unspecified)
→ .	104	.	-8
CC1CCN(c2cc3c(cc2F)c(=O)c(S(=O)(=O)c2ccccc2)cn3C)CC1
→ .	107	.	-9
c1ccc2c(c1)CC(N1CCOCC1)C2
→ 78	105	100	-9
Cc1nc2ccc(S(=O)(=O)NCC(=O)N3CCN(C4CCCCC4)CC3)cc2s1
→ 89	102	95	5
COc1ccc(CNc2nc3ccccc3c3nc(-c4ccccc4)nn23)cc1
→ 65	102	107	-19
CCOC(=O)c1c(C(=O)OCC)c2n(c1-c1ccccc1)Cc1ccccc1-2
→ 92	99	97	.
COc1ccc(OC)c(CNS(=O)(=O)c2ccc3c(c2)CCCN3C(C)=O)c1
→ 85	101	94	.
Cc1c(C#N)c2nc3c(c(-c4ccccc4)c2n1-c1ccccc1)CCCC3
→ 85	102	90	.
CC(C)N(Cc1nc(-c2ccccc2)no1)C(=O)C1CCCCC1
→ 91	98	89	.
O=C(c1ccccc1)N1N=C(c2ccc(F)cc2)CC1(O)C(F)(F)F (stereo unspecified)
→ .	102	.	-27
N=c1c(C(=O)NCc2ccco2)cc2c(=O)n3ccccc3nc2n1CCCO
→ 84	106	86	-110
CCn1cc(C(=O)NCCc2ccc(Cl)cc2)c(=O)c2cc(S(=O)(=O)N3CCc4ccccc4C3)ccc21
→ 90	104	110	-6
CC1CC(NC(=O)c2ncn[nH]2)CC(C)(C)C1 (stereo unspecified)
→ 85	104	108	-3
c1ccc2sc(N3CCN(Cc4nnnn4C4CCCC4)CC3)nc2c1
→ 101	106	108	-10
CCCCN(C)Cc1nc2ccccc2n1C
→ 107	99	118	9
Oc1ccc(Br)cc1-c1nc2cnccn2c1Nc1ccc(F)cc1
→ .	95	.	7
Cc1ccc(C)c(CSc2nc3ccncc3n2Cc2nc(-c3ccccc3Cl)oc2C)c1
→ 82	100	103	-2
CC(C(=O)N1CCCCC1)n1sc2ccccc2c1=O (stereo unspecified)
→ 88	102	102	2
O=C(C(=S)N1CCOCC1)c1c[nH]c2ccccc12
→ 89	106	100	-14
O=C(/C=C/c1ccco1)Nc1ccccc1C(=O)c1ccccc1
→ 72	110	86	-24
COc1cc(NC(=O)C2CCCN(C(=O)c3cc(-c4ccccn4)n[nH]3)C2)cc(OC)c1 (stereo unspecified)
→ .	104	.	-12
O=c1cc(-c2ccc(F)cc2)nc(SCc2nc(-c3ccccc3Cl)no2)[nH]1
→ 101	104	106	.
COc1ccc(/C=C(\C#N)c2cccc(Cl)c2)c(OC)c1
→ 94	98	91	26
CC(=O)OCc1ccccc1Oc1cccc(Cl)c1
→ .	104	.	2
CC(C)(C)OC(=O)N1CCC(c2c(C(=O)N3CCN(Cc4ccccc4)CC3)cnn2-c2ccc(Cl)cc2)CC1
→ 92	100	110	.
Cc1ccc(-c2nnc(Nc3ccc(Br)cc3)c3ccccc23)cc1S(=O)(=O)NCc1nc2ccccc2[nH]1
→ 86	111	114	-22
COC(=O)CC1Oc2ccccc2-n2cc(-c3ccc(Cl)cc3)nc21 (stereo unspecified)
→ 90	107	105	6
Cc1ccccc1/C=C1\CN(C)C/C(=C\c2ccccc2C)C1=O
→ 83	.	87	-7
COc1ccc(-c2nnc(N3CCOCC3)c3ccccc23)cc1
→ .	107	.	-31
O=C(CCNS(=O)(=O)c1cccc2nsnc12)N1CCc2ccccc21
→ 81	97	102	.
Cc1ccc(C)c2[nH]c(=O)c(CN(CCCN3CCCC3=O)S(=O)(=O)c3ccc(F)cc3)cc12
→ 97	109	99	-19
CCc1nc(-c2cc(S(=O)(=O)N3CCCC(C(=O)Nc4ccc(OC)cc4)C3)c(C)s2)no1 (stereo unspecified)
→ .	108	.	-13

# Another view of three compounds above:
SMILES | Sa growth inh second temp | GIV Gai3 FP | Sa growth inh | HCMV UL50-53 inh
CCn1ncc(C2=NOC(C(=O)NCC(C)C)C2)c1C (stereo unspecified) | 93 | 106 | 99 | .
CC1CCN(c2cc3c(cc2F)c(=O)c(S(=O)(=O)c2ccccc2)cn3C)CC1 | . | 107 | . | -9
Cc1ccccc1/C=C1\CN(C)C/C(=C\c2ccccc2C)C1=O | 83 | . | 87 | -7

# The listing continues.
# Second line of a record: Sa growth inh second temp	GIV Gai3 FP	Sa growth inh	HCMV UL50-53 inh
COc1cccc(NC(=O)CCCc2nc(-c3cc4ccc(C)cc4[nH]c3=O)no2)c1
→ .	112	.	-32
COc1ccc(CCNC(=O)c2cc(C(C)C)on2)cc1OC
→ 97	103	110	-2
N#C/C(=C\c1c(F)cccc1Cl)S(=O)(=O)Cc1ccco1
→ 34	100	77	-11
COc1cccc(CNC(=O)c2sc3ncccc3c2-n2c(C)ccc2C)c1OC
→ 69	98	78	.
CCS(=O)(=O)N1CCCC(C(=O)NC2CC2)C1 (stereo unspecified)
→ 83	100	120	.
CC(=O)Nc1cc(-c2nc(-c3cccc(NC(=O)Nc4ccccc4)c3)no2)ccc1C
→ .	101	.	-25
OCC1CCCN(c2ncnc3sc(-c4ccccc4)cc23)C1 (stereo unspecified)
→ 85	.	122	-3
COc1cccc(C2CC(=O)Nc3c2c(=O)nc2c(C)cccn32)c1OC (stereo unspecified)
→ 99	104	117	.
O=C(Nc1cccnc1)C(c1ccccc1)c1ccccc1
→ 87	.	142	-3
COc1oc(-c2ccc(F)cc2)nc1C(F)(F)F
→ 89	99	71	.
Cc1cc2nc(NCc3ccc4c(c3)OCO4)c(C(=O)OC(C)C)nc2cc1C
→ .	76*	.	-23
Cc1ccc(NC(=O)c2ccco2)c(NC(=O)C(C)C)c1
→ 101	106	98	-14
Cc1cc(C(=O)NCCN(C)C)c2c(=O)n(C)c(=O)n(C)c2n1
→ .	104	.	-24
CC(C)NC(=O)C(C)n1cccc1C(=O)c1ccccc1 (stereo unspecified)
→ 83	97	111	.
Cc1c(C)n(C(=O)CN2CCN(c3ccc(F)cc3)CC2)c2ccccc12
→ 96	104	105	-6
COc1cccc(NC(=O)Cn2c(=O)n(-c3ccccc3)c(=O)c3sccc32)c1
→ 91	104	109	-2
CC(=O)Nc1ccc2nc(SCc3c(C)cc(C)cc3C)sc2c1
→ 82	103	88	.
CCCCCCCCCCCCCCCCCCOC[C@H](COP(=O)([O-])OCC[N+](C)(C)C)OC
→ .	106	.	0&0&-1&-14
CCCCN(CCCNC(=O)c1cc(Nc2ccc(OC)c(OC)c2)nc2ccccc12)c1ccccc1
→ 85	102	101	-21
O=C(O)c1ccccc1NCCO
→ 97	.	111	9

# The closing 2 compounds of the section before come first, to join the parts:
# Second line of a record: Sa growth inh second temp	GIV Gai3 FP	Sa growth inh	HCMV UL50-53 inh
CCCCN(CCCNC(=O)c1cc(Nc2ccc(OC)c(OC)c2)nc2ccccc12)c1ccccc1
→ 85	102	101	-21
O=C(O)c1ccccc1NCCO
→ 97	.	111	9
Cc1cccc(C(=O)Nc2ccc3[nH]c(=O)[nH]c3c2)c1
→ 114	.	86	-5
Nc1nnnn1CC(=O)N/N=C/c1ccc(-c2cccc(Cl)c2)o1
→ 96	94	104	-15
CCN(CCN(C)C)Cc1ccc(NC(C)=O)cc1
→ 89	106	100	4
O=C(O)Cc1ccc2c(c1)[nH]c1ccccc12
→ 92	.	107	2
COc1cccc(/C=N/NC(=O)c2cccc(OC)c2)c1
→ 107	100	105	-7
CC(=O)Nc1ccc2c(c1)nc(CN1CCCC1)n2C(C)C
→ .	107	.	22
O=C(Oc1ccccc1-c1cnc2ccccc2n1)c1ccc(F)cc1
→ 83	.	97	-2
Cc1ccc2nc3c(cc(C(=O)NCc4ccco4)c(=N)n3C(C)C)c(=O)n2c1
→ 89	109	121	-34
CCOc1ccc(CC(=O)NCc2ccc3c(c2)CCN3C(C)=O)cc1OCC
→ 98	108	105	.
CCOC(=O)Cc1nc2ccccc2[nH]1
→ 92	.	74	0
CCOc1ccc(NC(=O)C(C)n2nnc3sc4c(c3c2=O)CCCC4)cc1 (stereo unspecified)
→ .	110	.	-31
C=CCSc1nnc(NC(=O)CCNC(=O)c2ccco2)s1
→ 80	.	68	-31
CCC1CCCCN1C(=O)c1cc(-c2ccc(C)cc2)on1 (stereo unspecified)
→ 49	101	59	.
COc1ccncc1C(=O)Nc1ccc(F)cc1F
→ 89	101	120	-9
CCc1nnc(SCc2cccc(OC)c2)c2cc3occc3n12
→ 70	108	88	-79
O=C(NCC1CCCO1)NC(=O)c1ccccc1 (stereo unspecified)
→ 104	106	97	8
COC(=O)c1ccc(N2CCN(C)CC2)c(NC(=O)COc2ccc(OC)cc2)c1
→ .	101	.	-23
Cc1ccc(S(=O)(=O)/N=C(\CN2CCOCC2)N2CCOCC2)cc1
→ 97	102	101	-5
Cc1cccc2nc(Cn3c(=O)n(CCC(=O)NCc4ccco4)c(=O)c4sccc43)cc(=O)n12
→ 95	101	98	4
CCc1cccc2c(C=C(C#N)C#N)cn(CC(=O)N3CCCCCC3)c12
→ 83	104	96	-16
O=C1C=CC(=O)N1c1ccc(-n2nc(C(F)(F)F)cc2C(F)(F)F)cc1
→ 25	96	38	0
O=C(Nc1ccc(S(=O)(=O)N(Cc2ccccc2)c2ccccc2)cc1)c1ccc(F)cc1
→ 84	99	107	-15
CC(=O)Nc1cccc(C(=O)NC(C)c2ccccc2)c1 (stereo unspecified)
→ 94	106	91	15
C/C=C/C(=O)Oc1ccc(Cl)cc1
→ 107	105	101	-10
Cc1cc(NCC2CCCO2)n2nc(C(F)(F)F)c(-c3ccccc3Cl)c2n1 (stereo unspecified)
→ .	113	.	-8
CC(C)(C)C(=O)Nc1cccc(-c2cn3cccnc3n2)c1
→ 83	102	97	.
CCCOC1(C(F)(F)F)NC(=O)N(c2ccc(Cl)cc2)C1=O (stereo unspecified)
→ 92	104	87	-15
CCSc1nnc(NC(=O)Cn2c3ccccc3c(=O)c3ccccc32)s1
→ .	104	.	-19
CCCCNC(=O)c1c[nH]c2ccc(C)cc2c1=O
→ 110	104	119	8
CCCCSC(=O)Nc1ccccc1
→ 108	103	88	3
CCOc1ccc(/C=C/c2nc3ccccc3n2S(=O)(=O)c2cccc(Cl)c2)cc1
→ 80	104	106	-27
O=C(CN1CCN(S(=O)(=O)c2cccs2)CC1)Nc1ccccc1Oc1ccccc1
→ 91	.	97	-10
COc1ccc(C)cc1NC(=O)c1ccc2c(=O)n3c(nc2c1)CCCCC3
→ 86	103	90	6
CC(=O)NC(c1ccccc1)n1nnc2ccccc21 (stereo unspecified)
→ 75	95	115	1
O=C(OC1CCCCC1=O)c1ccc2c(c1)C(=O)N(Cc1ccco1)C2=O (stereo unspecified)
→ 90	.	101	-54
CCOC(=O)c1cc(-c2ccc(S(=O)(=O)N(C)CCCc3ccco3)s2)on1
→ 91	107	80	-32
O=C(O)c1ccccc1C(=O)Nc1ncccc1OCc1ccc(Cl)c(Cl)c1
→ 81	109	108	-6
COc1ccc2c(c1)c1c(c(=O)n(Cc3ccccc3)c(=O)n1CC(=O)Nc1ccccc1OC)n2C
→ 85	108	115	.
O=C(Nc1cccc(F)c1)c1nnc(CCCC(=O)N2CCN(c3ccccc3)CC2)s1
→ .	98	.	-10
O=C(OC1CCCCC1=O)c1ccc2c(c1)OCO2 (stereo unspecified)
→ 99	.	92	23
N#CC(C#N)=NNc1ccc(SC(F)F)cc1
→ 0.1*	.	0.9*	-24
O=C(OCC(=O)N1CCCC1)c1ccco1
→ 98	.	80	14
Cc1ccc2[nH]cc(CCN3CC(C(=O)Nc4ccccc4)CC3=O)c2c1 (stereo unspecified)
→ .	115	.	-5
C=CCNC(=S)Nc1ccc2cn[nH]c2c1
→ 94	.	91	4
O=C(c1cccs1)C1C2C(=O)C3OCC(O3)C12 (stereo unspecified)
→ 88	.	100	-7
O=C(NCc1ccc2c(c1)OCO2)c1ccc2c(c1)C(=O)N(C1CCCCC1)C2=O
→ 103	104	99	-4
C(=C\c1ccccc1)/CNc1ccc(N2CCOCC2)cc1
→ 90	102	90	.
CC1=C(c2ccc(C)c(C)c2)S(=O)(=O)NC1=NCc1ccccc1Cl
→ 97	100	117	-24
CN(C)S(=O)(=O)c1ccc(-c2nc(C#N)c(NC3CCCCC3)o2)cc1
→ .	104	.	-6

# Records above marked active in GIV Gai3 FP:
Compound,Sa growth inh second temp,GIV Gai3 FP,Sa growth inh
Cc1cc2nc(NCc3ccc4c(c3)OCO4)c(C(=O)OC(C)C)nc2cc1C,.,76*,.
